High-throughput results from PubChem BioAssay.
Six1-Eya2 blk: blocks human Six1 binding to Eya2. AlphaScreen GST-Six1/His-Eya2 binding, biochemical; active compounds read low; control for the full effect not named in the record. activity change, % (concentration not given with the values). hit rate 0.56% among 360,000. AID 651725; in the data active = activity change below about -65%; inconclusive = about -30% to -65%; inactive = above about -30%; note: % is set by controls: 0 for no effect and ±100 for the full control effect
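Compounds are tested against tagged Six1 and Eya2 proteins bridged by glutathione donor and nickel acceptor beads; after a one-hour incubation at 37 °C without light, AlphaScreen emission is recorded.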
CtBP-E1A blk: blocks the CtBP interaction with E1A; AlphaScreen GST-E1A/His-CtBP binding, 1536-well; active compounds read low; control for the full effect not named in the record; activity change, % (concentration not given with the values); hit rate 0.49% among 340,000; AID 651724; in the data active means activity change below about -65%; inconclusive means about -30% to -65%; inactive means above about -30%; note: % is set by controls: 0 for no effect and ±100 for the full control effect
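Homogeneous bead-based format: GST-tagged E1A captured on glutathione donor beads, His-tagged CtBP on nickel acceptor beads; compounds precede bead addition by 2 h at 37 °C.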
TRPML1 blocker: blocks the human TRPML1 channel; Q9GZU1; TRPML1-inducible cells, Ca2+ dye fluorescence, FDSS; active compounds read low; inhibition of EC80 agonist-evoked calcium signal; activity change, negative = inhibition, % (concentration not given with the values); hit rate 0.02% among 390,000; AID 624415; in the data active means activity change below about -50%; inconclusive means about -30% to -50%; inactive means above about -30%;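 note: stimulus is agonist 54-4 at its EC80 concentration; % is set by controls: 0 for no effect and ±100 for the full control effect; the text of the record puts the active cut at -80%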
Target sequence (Q9GZU1 whole entry, looked up): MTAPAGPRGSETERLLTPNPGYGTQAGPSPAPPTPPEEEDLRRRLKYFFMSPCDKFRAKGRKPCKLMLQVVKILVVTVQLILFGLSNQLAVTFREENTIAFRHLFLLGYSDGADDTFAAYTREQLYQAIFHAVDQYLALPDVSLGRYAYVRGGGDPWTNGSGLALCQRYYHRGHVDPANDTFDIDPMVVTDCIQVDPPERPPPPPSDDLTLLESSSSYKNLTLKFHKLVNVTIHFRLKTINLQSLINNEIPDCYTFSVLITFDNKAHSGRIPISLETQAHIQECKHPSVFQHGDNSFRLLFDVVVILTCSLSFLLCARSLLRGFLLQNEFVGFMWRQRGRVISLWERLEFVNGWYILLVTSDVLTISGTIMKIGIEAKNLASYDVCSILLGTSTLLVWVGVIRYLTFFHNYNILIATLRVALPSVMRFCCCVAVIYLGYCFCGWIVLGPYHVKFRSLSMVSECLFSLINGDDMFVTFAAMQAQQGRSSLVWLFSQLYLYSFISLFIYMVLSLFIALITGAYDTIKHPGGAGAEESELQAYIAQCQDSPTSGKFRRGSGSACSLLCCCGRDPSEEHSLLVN
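Tet-induced TRPML1-DL cells loaded with Ca8 no-wash calcium dye were read kinetically on FDSS. Compound addition was followed by EC80 agonist 54-4 (4 uM final); inhibition was read over 110 s.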
D2 ag: agonists of human D2 dopamine receptor (beta-arrestin); AID 624465; hit rate 0.084% among 360,000; activation, % (no concentration beside the values); P14416; DiscoveRx PathHunter D2 beta-arrestin, luminescence, 90 min; 100% = 57 uM dopamine signal; in the data active = activation above about 40%; inconclusive = about 15% to 40%; inactive = below about 15%; note: compound concentration not given in the record; the text of the record calls up to 30% inactive
Target sequence (P14416 whole entry, looked up): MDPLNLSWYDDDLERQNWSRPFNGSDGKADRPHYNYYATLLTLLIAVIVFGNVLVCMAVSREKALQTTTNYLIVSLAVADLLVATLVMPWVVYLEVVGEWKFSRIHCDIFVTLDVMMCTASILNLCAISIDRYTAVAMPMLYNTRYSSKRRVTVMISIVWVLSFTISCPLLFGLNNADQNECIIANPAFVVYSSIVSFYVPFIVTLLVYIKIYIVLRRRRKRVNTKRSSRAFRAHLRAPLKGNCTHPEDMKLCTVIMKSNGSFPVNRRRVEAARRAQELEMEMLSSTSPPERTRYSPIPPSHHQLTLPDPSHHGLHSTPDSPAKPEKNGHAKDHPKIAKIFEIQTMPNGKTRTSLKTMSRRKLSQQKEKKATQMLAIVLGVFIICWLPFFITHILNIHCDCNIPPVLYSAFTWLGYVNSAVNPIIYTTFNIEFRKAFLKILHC
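Agonist mode: compounds alone added to overnight-plated D2 PathHunter cells for 90 min at 37 C, with 57 uM final dopamine (EC100) defining full response. Beta-arrestin recruitment detected by chemiluminescent reagent, read after 1 h at ambient temperature.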
PINK1 expr mod: modulators of PINK1 expression; PINK1 immunofluorescence, high-content cytometry, 24 h; Potency, µM (titrated, usually from 76.6 µM), for the others: top-dose activation (PINK1 increase), hits mostly activators; hit rate 0.2% among 410,000; AID 624263; active = well fitted activation curve with a large enough effect; inconclusive = small, poorly fitted or top-dose-only effect; inactive = flat fitted curve, though single readings scatter; cell line not stated here;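 note: potency is the fitted concentration of half-maximal effect; % of control where 0% means no effect; nearly all actives have a fitted effect of over 65% in size; a mitochondrial uncoupler was the plate control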
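Cells are seeded, rested 12 hours, then given compound at five concentrations or DMSO for 24 hours. After fixation, blocking and antibody staining, PINK1 amount and mitochondrial localization are scored; CCCP serves as control.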
TRPML1 ag: activates the human TRPML1 channel. Q9GZU1. activation, % (no concentration beside the values). AID 624414. TRPML1-expressing cells, Ca2+ dye fluorescence, FDSS; host cell line not named in the record; reference of the full effect not given here. hit rate 0.12% among 410,000; in the data active = activation above about 50%; inconclusive = about 30% to 50%; inactive = below about 30%; note: 0% is about no effect; the text of the record puts the active cut at 80%
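Kinetic FDSS Ca2+ read in Tet-induced TRPML1-DL cells (ABD Ca8 dye plus quencher, 45-90 min RT loading): baseline, then compound, then 110 s agonist window; EC80 agonist 54-4 at 4uM final added afterwards for a 110 s antagonist window.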
* hit, by the source's call; ? = inconclusive; nt = not tested or not shown; [ ] = dose if it differs, or a comment.

Screens by letter: A = Six1-Eya2 blk; B = CtBP-E1A blk; C = TRPML1 blocker; D = D2 ag; E = PINK1 expr mod; F = TRPML1 ag
1: CC(=O)Nc1ccc(NC(=S)NC(=O)c2oc3ccccc3c2C)cc1
  A = 1	B = 1	C = -5	D = -0.8	E = 5.8%	F = -0.3

2: Cc1c(C(=O)O)sc2nc(/C=C/c3cccc(F)c3)[nH]c(=O)c12
  A = 1	B = -2	C = nt	D = -1.7	E = 3.0%	F = nt

3: CC1CCc2c(sc(NC(=O)c3ccco3)c2C(=O)O)C1 (stereo unspecified)
  A = 2	B = -2	C = -7	D = -6.8	E = 0.5%	F = 0.7

4: Cc1ccc(Cl)cc1NC(=O)C(Cc1ccccc1)N1C(=O)C2C3CCC(C3)C2C1=O (stereo unspecified)
  A = 5	B = -8	C = 18	D = 6.3	E = -0.6%	F = 1.8

5: Cc1ccc(-n2nnnc2SCC(=O)NC(C(=O)O)(c2ccccc2)c2ccccc2)cc1C
  A = -4	B = -1	C = 14	D = -2.1	E = -1.7%	F = -0.9

6: Cc1nc2ccccn2c(=O)c1NC(=O)c1ccccc1Cl
  A = nt	B = nt	C = -19	D = nt	E = 2.7%	F = 0.2

7: Cc1ccc(/C=N/NC(=O)c2sccc2OCc2ccc(F)cc2)cc1
  A = -2	B = 5	C = 30	D = -4.6	E = 8.0%	F = 0.3

8: O=C(CSc1nc(=O)n2cc(Cl)ccc2n1)NCCc1ccccc1
  A = -10	B = 1	C = 20	D = -4.6	E = -0.2%	F = -0.4

9: O=C(OCC#CCSc1nnc(-c2ccc(Br)cc2)o1)c1cccs1
  A = 20	B = 29	C = 39	D = -6.8	E = 2.6%	F = 0.7

10: Cc1cc(C)nc(NC(=O)CSc2nc3cc(Cl)ccc3s2)n1
  A = 1	B = 9	C = 21	D = -1.2	E = 8.0%	F = 1.0

11: COc1ccc(Cl)cc1-c1cc(C(=O)Nc2ccc(Br)cc2)[nH]n1
  A = 6	B = 1	C = nt	D = -0.8	E = 3.1%	F = 0.2

12: Cc1c(C(=O)N(CCO)Cc2ccccc2)oc2c(F)cccc12
  A = -1	B = 4	C = 31	D = -4.6	E = 0.6%	F = -0.1

13: Cc1cc(C2(c3ccc(O)c(C)c3)OC(=O)c3ccccc32)ccc1O
  A = -10	B = -1	C = -16	D = -8.0	E = 2.0%	F = 0.2

14: CCOC(=O)c1ccc2nc(NC(C)=O)sc2c1
  A = 6	B = 1	C = -9	D = 8.0	E = -3.9%	F = 0.0

15: C=CCOc1cccn2c(N(C)C(=O)c3ccc(OC)cc3)c(CC)nc12
  A = 1	B = 2	C = nt	D = ?	E = 0.2%	F = -0.6

16: Cc1ccc(OCCN2CCOCC2)cc1C
  A = 17	B = -15	C = 5	D = -0.5	E = -2.1%	F = -0.2

17: O=C(CCN=C1NS(=O)(=O)c2ccccc21)OCc1cccc(Cl)c1
  A = -4	B = -9	C = -3	D = -4.4	E = -0.8%	F = 0.2

18: O=C(NCc1ccco1)c1nc2c(nnn2Cc2ccccc2Cl)c(=O)[nH]1
  A = -2	B = 6	C = 12	D = -1.1	E = -1.3%[38.3 µM]	F = 1.0

19: COc1cc(C=O)ccc1OCCSc1ccc(C)cc1
  A = 13	B = 26	C = 18	D = 1.1	E = ?	F = 1.9

20: N#Cc1cccc(C(=O)Nc2ccccc2C(=O)NC2CC2)c1
  A = -5	B = 1	C = 17	D = -0.8	E = 5.5%	F = -0.4

21: CC(C)(C)OC(=O)N1CCC(c2c(C(=O)NCc3ccc4c(c3)OCO4)cnn2-c2ccc(F)cc2F)CC1
  A = nt	B = nt	C = 2	D = nt	E = 0.2%	F = 4.5

22: Cc1ccc(N2CCN(c3cc(C)nc4c(-c5ccc(Cl)cc5)c(C)nn34)CC2C)cc1 (stereo unspecified)
  A = nt	B = nt	C = 6	D = nt	E = 0.8%	F = 0.9

23: COc1ccc(CCn2c(=O)c3cccnc3n(Cc3cccc([N+](=O)[O-])c3)c2=O)cc1OC
  A = 10	B = 6	C = -6	D = -3.8	E = 8.6%	F = -0.3

24: Cc1ccc(CNC(=O)c2ccc3c(c2)N(Cc2ccccc2)C(=O)c2ccccc2S3(=O)=O)cc1
  A = nt	B = nt	C = -16	D = nt	E = 0.8%	F = 0.4

25: O=S(=O)(N/N=C\c1ccc(-c2ccccc2Cl)o1)c1ccccc1
  A = -20	B = -5	C = 16	D = -11	E = -0.7%	F = 1.2

26: CCN(CC)c1ccc(C(=O)N2CCN(Cc3ccccc3)CC2)cc1
  A = -8	B = nt	C = 2	D = -5.1	E = 4.4%	F = 1.5

27: Cc1ccc2[nH]c(=O)c(CN(CC3CCCO3)C(=S)Nc3ccccc3)cc2c1 (stereo unspecified)
  A = -10	B = -12	C = 14	D = 2.0	E = 8.4%	F = 2.8

28: COc1ccccc1N(C)S(=O)(=O)c1ccc(C(=O)OCC(=O)N2CCC2)cc1
  A = 1	B = 12	C = 0	D = -0.7	E = 0.0%	F = 0.1

29: CCOc1ccc(-c2nnc(NC(=O)COc3ccccc3F)o2)cc1
  A = -28	B = -6	C = -3	D = -1.6	E = -1.1%	F = -0.8

30: CC1CCCCN1C(=O)c1ccc(Br)o1 (stereo unspecified)
  A = 0	B = 0	C = -5	D = -1.5	E = 12%	F = -0.5

31: Cc1ccc(N2CC(C(=O)NNC(=O)c3ccc(F)cc3)CC2=O)cc1 (stereo unspecified)
  A = 19	B = 0	C = 44	D = -0.3	E = -0.4%	F = 0.4

32: C=CCn1c(SCC(=O)N2CCc3ccccc3C2)nc2sc(C)cc2c1=O
  A = -1	B = -1	C = 0	D = -3.9	E = 0.6%	F = -0.3

33: CC(C)CC(NC(=O)C(CC(C)C)NC(=O)OC(C)(C)C)C(=O)O (stereo unspecified)
  A = 6	B = 6	C = -8	D = 2.7	E = 0.5%	F = 1.3

34: COc1ccc(C(=O)NCc2nnc(SCC(=O)Nc3cccc(F)c3)o2)cc1
  A = 6	B = -1	C = 17	D = -2.1	E = -1.1%	F = 2.9

35: CCSc1nc(O)c(CC)c(=O)n1C(C)CC (stereo unspecified)
  A = 1	B = 17	C = 5	D = -0.4	E = 4.5%[38.3 µM]	F = 0.4

36: CCCC1Cc2nc(N3CCCCC3)c(C#N)cc2CO1 (stereo unspecified)
  A = 48	B = 39	C = -21	D = 0.0	E = 2.5%[38.3 µM]	F = 1.9

37: COCCCN1C(=O)C(=O)/C(=C(/O)c2ccc(OC)cc2)C1c1ccc(O)c(OC)c1 (stereo unspecified)
  A = -2	B = 3	C = 65	D = -3.0	E = -0.5%	F = -1.0

38: O=C(CCSc1nc(-c2ccco2)cc(C(F)(F)F)n1)NCc1cccs1
  A = -1	B = 6	C = -16	D = -3.3	E = -0.9%	F = -0.1

39: O=C1C=C(c2cc3ccccc3s2)C[C@@H](c2ccc(Cl)cc2)C1
  A = -8	B = 4	C = 36	D = -4.5	E = 2.6%	F = -0.5

40: CCOc1cc(OCC)cc(C(=O)N2CCC[C@H]2C(=O)N2CCC[C@H]2C(=O)N[C@H](C)c2ccccc2)c1
  A = 7	B = -2	C = nt	D = nt	E = 0.5%	F = -0.6

41: Cc1cccc(Nc2c3c(nc4ccccc24)CCC3)c1
  A = -4	B = -8	C = 0	D = 0.7	E = ?	F = 0.6

42: CCOC(=O)C1CCN(C(=O)COC(=O)CNC(=O)c2sc3ccccc3c2Cl)CC1
  A = 2	B = nt	C = -10	D = -4.1	E = 2.8%	F = -1.1

43: CCC1CCCCN1Cc1ccc(CNS(=O)(=O)c2ccc3c(c2)oc(=O)n3C)o1 (stereo unspecified)
  A = -1	B = -1	C = 3	D = -5.9	E = -0.5%	F = 1.2

44: COc1ccc(/C=C/C(=O)Oc2ccc(C)c(C)c2)cc1OC
  A = -5	B = ?	C = 60	D = -1.7	E = 0.7%	F = 4.4

45: CN(C)Cc1c(C(=O)N/N=C/c2ccoc2)nnn1-c1nonc1N
  A = -2	B = -16	C = -6	D = -3.0	E = 1.7%	F = -0.5

46: COC(=O)C[N+](C)(C)CC#Cc1ccccc1
  A = 3	B = 0	C = -7	D = -1.1	E = 1.9%	F = 0.9

47: COc1cc(/C=C/C(=O)OCC(=O)c2ccc3c(c2)NC(=O)CO3)ccc1OC(F)F
  A = -10	B = -12	C = -9	D = -4.8	E = 0.6%	F = 7.8

48: COC(=O)C(=Nc1ccccc1)/C(C(=O)C(=O)N(C)c1ccccc1)=C(\O)c1ccc(Cl)cc1
  A = -5	B = -1	C = -29	D = -0.9	E = -0.8%	F = 0.7

49: O=S(=O)(NCCNS(=O)(=O)c1cccs1)c1cccs1
  A = 25	B = 24	C = -4	D = -1.3	E = -0.8%	F = -0.5

Some of the entries so far, as a markdown table.
| entry | molecule | Six1-Eya2 blk | CtBP-E1A blk | TRPML1 blocker | D2 ag | PINK1 expr mod | TRPML1 ag |
| --- | --- | --- | --- | --- | --- | --- | --- |
| 36 | CCCC1Cc2nc(N3CCCCC3)c(C#N)cc2CO1 (stereo unspecified) | 48 | 39 | -21 | 0.0 | 2.5%[38.3 µM] | 1.9 |
| 37 | COCCCN1C(=O)C(=O)/C(=C(/O)c2ccc(OC)cc2)C1c1ccc(O)c(OC)c1 (stereo unspecified) | -2 | 3 | 65 | -3.0 | -0.5% | -1.0 |
| 38 | O=C(CCSc1nc(-c2ccco2)cc(C(F)(F)F)n1)NCc1cccs1 | -1 | 6 | -16 | -3.3 | -0.9% | -0.1 |
| 39 | O=C1C=C(c2cc3ccccc3s2)C[C@@H](c2ccc(Cl)cc2)C1 | -8 | 4 | 36 | -4.5 | 2.6% | -0.5 |
| 40 | CCOc1cc(OCC)cc(C(=O)N2CCC[C@H]2C(=O)N2CCC[C@H]2C(=O)N[C@H](C)c2ccccc2)c1 | 7 | -2 | nt | nt | 0.5% | -0.6 |
| 41 | Cc1cccc(Nc2c3c(nc4ccccc24)CCC3)c1 | -4 | -8 | 0 | 0.7 | ? | 0.6 |
| 42 | CCOC(=O)C1CCN(C(=O)COC(=O)CNC(=O)c2sc3ccccc3c2Cl)CC1 | 2 | nt | -10 | -4.1 | 2.8% | -1.1 |
| 43 | CCC1CCCCN1Cc1ccc(CNS(=O)(=O)c2ccc3c(c2)oc(=O)n3C)o1 (stereo unspecified) | -1 | -1 | 3 | -5.9 | -0.5% | 1.2 |
| 44 | COc1ccc(/C=C/C(=O)Oc2ccc(C)c(C)c2)cc1OC | -5 | ? | 60 | -1.7 | 0.7% | 4.4 |
| 45 | CN(C)Cc1c(C(=O)N/N=C/c2ccoc2)nnn1-c1nonc1N | -2 | -16 | -6 | -3.0 | 1.7% | -0.5 |
| 46 | COC(=O)C[N+](C)(C)CC#Cc1ccccc1 | 3 | 0 | -7 | -1.1 | 1.9% | 0.9 |
